Rce1 inhib: blocks yeast Ras-converting enzyme; hit rate 0.27% among 290,000; yeast membranes, quenched prenylated peptide cleavage fluorescence; Q03530; calls only;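 active means fall in fluorescence gain of 50% or more versus controls, with final raw signal at or below 3038400; inconclusive means same 50% fall but final raw signal above 3038400; inactive means fall in fluorescence gain under 50%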;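 further: plate controls were neutral control wells for no effect and wells lacking membranes for full effect; tested at 10 µM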
Env fusion inh: HIV envelope-mediated fusion inhibition | AID 651610 | HeLa-JRFL Env/CEM21 cell fusion, luciferase | inhibition, % at 12.3 µM | hit rate 1.1% among 360,000;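 active means mean replicate inhibition score of at least 50 and every replicate individually at or above 50; inconclusive means only one of the two criteria met; inactive means mean below 50 and not all replicates reaching 50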;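 further: 0% = plate neutral controls and 100% = maraviroc near 300 nM; one replicate is shown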
MT1-MMP act inh: blocks activation of human MT1-MMP. HT1080 RFP-PRO-GFP cells, GFP/RFP ratio fluorescence, overnight; percent of plate control window, DMSO zero. GFP/RFP ratio change, % at 20 µM. hit rate 0.061% among 360,000. AID 651647;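 active means GFP/RFP ratio change of at least 30% with cell ATP level not reduced by more than half and red fluorescence within 50% of control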; further: strong numbers were not always called active
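Assay system: HT1080 cells carrying an RFP-PRO-GFP reporter | Dosing: Single dose of 20 µM compound, 1% DMSO final | Incubation: Cells overnight before dosing, compound overnight, 37 °C, 5% CO2 | Evaluation: GFP/RFP fluorescence ratio | Control set: DMSO and RFP-L50D-GFP cell wells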
Yeast UUG start: alters start codon recognition fidelity in yeast; AID 602363; S. cerevisiae UUG-firefly luciferase reporter, luminescence/redox ratio; activity score, % at 18.7 µM; hit rate 0.13% among 350,000;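 active means replicate mean at a twofold rise or more, about +100% in these data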;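 further: firefly luciferase made from a UUG start codon reports start codon fidelity; reporter light over untreated wells divided by growth signal over untreated wells; some hits fall short of that in this replicate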
PABP FP inh: blocks human PABP binding to poly(A) RNA. P11940. fluorescence polarization. inhibition, % at 35 µM. hit rate 1% among 290,000;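 active means 50% or more with normal probe brightness, or confirmed in later tests; inconclusive means above 50% with abnormal brightness, or retests that disagree; inactive means below 50% or failed in later tests; about a fifth of its hits are not listed in these tables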;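 further: calls also rest on retests at 20 µM and on dose response follow-up; controls were probe without protein and protein plus probe with vehicle; some compounds called inactive have numbers as strong as hits; many hits fall short of the cut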
Target sequence (P11940 whole entry, looked up): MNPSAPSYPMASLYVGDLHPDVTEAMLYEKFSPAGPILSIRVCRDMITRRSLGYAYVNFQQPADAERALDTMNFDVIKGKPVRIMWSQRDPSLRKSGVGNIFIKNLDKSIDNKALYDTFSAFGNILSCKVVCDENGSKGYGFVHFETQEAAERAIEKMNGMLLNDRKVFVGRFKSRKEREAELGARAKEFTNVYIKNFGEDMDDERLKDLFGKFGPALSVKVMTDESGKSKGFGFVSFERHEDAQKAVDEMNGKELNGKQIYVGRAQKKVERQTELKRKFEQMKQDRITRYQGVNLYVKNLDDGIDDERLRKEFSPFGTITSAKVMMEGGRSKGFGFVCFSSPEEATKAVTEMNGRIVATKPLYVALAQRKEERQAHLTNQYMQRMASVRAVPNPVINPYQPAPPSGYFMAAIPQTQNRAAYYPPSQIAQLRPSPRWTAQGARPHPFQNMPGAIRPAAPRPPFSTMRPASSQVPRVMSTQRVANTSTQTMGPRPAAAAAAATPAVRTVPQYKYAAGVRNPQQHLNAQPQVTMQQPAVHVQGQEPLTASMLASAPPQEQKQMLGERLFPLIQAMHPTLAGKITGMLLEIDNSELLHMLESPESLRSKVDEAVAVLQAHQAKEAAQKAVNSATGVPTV
eIF4H FP inh: inhibitors of RNA binding by human eIF4H; Q15056; eIF4H fluorescence polarization binding assay; inhibition, % at 35 µM; hit rate 0.94% among 290,000;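 active means 50% or more with normal probe brightness, or confirmed in later tests; inconclusive means above 50% with abnormal brightness, or retests that disagree; inactive means below 50% or failed in later tests; about a fifth of its hits are not listed in these tables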;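 further: calls also rest on retests at 20 µM and on dose response follow-up; 0% = protein and probe with vehicle and 100% = probe without protein; strong numbers were not always called active; many hits fall short of the cut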
CSC inhib: cancer stem cell inhibition | cancer stem cell-like cells viability, luminescence | inhibition, % at 7.5 µM | hit rate 1.1% among 300,000 | AID 2717;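 active means mean at 75% or more and at least half the replicates too; inconclusive means mean and replicates disagree; tested in HMLE shEcad cells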;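 further: 0% = median of negative and 100% = median of positive control wells; the first replicate is given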
eIF4H FP inh retest: recorded beside eIF4H FP inh, whose call it bears; inhibition, %; compound at 20 µM; confirmation average;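 mean of two retest wells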
PABP FP inh retest: second read-out of PABP FP inh, no call of its own (marks repeat the call); inhibition, %; compound at 20 µM; confirmation repeats;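 mean of two retest wells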
MT1-MMP act inh RFP: further read-out of MT1-MMP act inh, marked with its call; RFP signal change, %; measured here: RFP expression control read;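 0 = vehicle wells; hits needed this value within 50% of zero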
The depositor's hits bear a star; i = inactive; ? = inconclusive; nt = no result given; & = joins results of further samples; [ ] = remark or other dose.

SMILES	Rce1 inhib	Env fusion inh	MT1-MMP act inh	MT1-MMP act inh RFP	Yeast UUG start	PABP FP inh	eIF4H FP inh	CSC inhib	others
Cc1ccc(Cn2c(SCC(=O)NCc3ccco3)nc3ccsc3c2=O)cc1	i	71*	3	-4	-10	-8	1	nt
CCS(=O)(=O)Nc1ccc(C2=NN(C(=O)c3ccco3)C(c3cccc(F)c3)C2)cc1 (stereo unspecified)	i	7	0	-5	nt	9	-7	-11
Cc1ccc(S(=O)(=O)Cn2nnnc2CN2CCN(C(=O)c3ccco3)CC2)cc1	i	nt	0	-3	-10	4	0	-7
CC(=O)OC1COC(OC2C(O)C(C)OC(OC3C(OC4CCC5(C)C(CCC6(C)C5CC=C5C7CC(C)(C)CCC7(C(=O)O)CCC56C)C4(C)CO)OCC(O)C3O)C2O)C(O)C1OC(C)=O (stereo unspecified)	nt	nt	nt	nt	nt	4	7	-3
CCOc1ccc(CCNC(=O)C2CCC(=O)N2C2CCCCC2)cc1OCC (stereo unspecified)	i	nt	2	9	12	-5	4	2
COc1ccc(-c2cc3ccccc3oc2=O)cc1NC(=O)c1ccc(Br)o1	i	nt	3	5	-9	-5	5	-3
Cc1cccc(-c2c3c(=O)n(C)c(=O)n(C)c3cn2CCO)c1	i	nt	1	2	15	1	-4	-12
O=C(O)c1ccc(Cl)c(NCc2ccncc2)c1	i	4	-2	-2	-26	6	-4	nt
CCOC(=O)c1cc(-c2cccc([N+](=O)[O-])c2)on1	i	-11	3	8	-16	-8	-17	-2
COc1ccc(C(=O)NC(=S)N2CC(C)OC(C)C2)cc1OC (stereo unspecified)	i	-92	-4	3	nt	6	3	-5
CN(C)c1ncnc2c1ncn2[C@H]1CN(C2CCCC2)C[C@@H](CO)O1	nt	1	-1	1	2	nt	nt	nt
COc1ccc(-n2c(SCC(=O)N3CCCCC3)nnc2-c2cccnc2)cc1	i	-37	7	3	8	1	1	-1
O=C(CN1C(=O)NC2(CCCCC2)C1=O)Nc1ccc(N2CCCCC2)cc1	nt	-21	0	5	-13	nt	nt	-9
Cc1nn2c(N3CCCC3)c3c(nc2c1-c1ccccc1)CCC3	i	1	1	-1	-19	16	10	-2
N#CCN1CCN(CC(=O)Nc2cccc3ccccc23)CC1	i	-33	-1	-7	nt	-8	3	-12
COC(=O)c1ccc2c(=O)n(CCCCCC(=O)NCc3ccccn3)c(=O)[nH]c2c1	i	-37	-3	-1	-12	-5	4	3
CCOC(=O)/C(C#N)=C/c1ccc(OCC(=O)Nc2ccccc2)c(OC)c1	i	nt	-2	4	17	-1	0	2
CCN(CC)C(=O)[C@H]1C[C@H](CC(=O)NC(C)(C)C)C(=O)N2CCc3c([nH]c4cc(CCC(=O)N(C)C)ccc34)[C@]12C	nt	-18	3	3	6	nt	nt	nt
C=CCOc1ccc(CN(C)C(=O)CNC(=O)c2ccc(-c3ccccc3)cc2)cc1	i	48	6	-28	-22	8	8	1
COc1cc(OC)cc(C(C(=O)NC2CCCCC2)N(C(=O)c2ccno2)c2ccccc2)c1 (stereo unspecified)	i	nt	1	7	-9	4	-1	-6
COc1cc(-c2nc3ccc4ccccc4c3c3c2CCC3)cc(OC)c1OC	i	nt	-9	-9	-18	9	-2	30
CCOC(=O)Nc1ccc2c(c1)N(C(=O)N1CCN(C)CC1)c1ccccc1S2	i	-34	-12	-5	5	4	2	5
CCN(CCCNC(=O)C1CCCN(S(=O)(=O)c2cnc[nH]2)C1)c1ccccc1 (stereo unspecified)	i	11	2	1	-10	4	1	-19
CCOC(=O)c1c(C)oc2ccc(OC(=O)COc3c(F)c(F)c(F)c(F)c3F)cc12	nt	-20	2	0	-11	-12	-3	0
COc1ccccc1CC1(C)C(=O)Nc2ccc(OC(F)(F)F)cc21 (stereo unspecified)	nt	5	-2	-4	-6	nt	nt	nt

Overlap with the part before: 6 compounds; new compounds follow.
SMILES	Rce1 inhib	Env fusion inh	MT1-MMP act inh	MT1-MMP act inh RFP	Yeast UUG start	PABP FP inh	eIF4H FP inh	CSC inhib	others
COc1cc(OC)cc(C(C(=O)NC2CCCCC2)N(C(=O)c2ccno2)c2ccccc2)c1 (stereo unspecified)	i	nt	1	7	-9	4	-1	-6
COc1cc(-c2nc3ccc4ccccc4c3c3c2CCC3)cc(OC)c1OC	i	nt	-9	-9	-18	9	-2	30
CCOC(=O)Nc1ccc2c(c1)N(C(=O)N1CCN(C)CC1)c1ccccc1S2	i	-34	-12	-5	5	4	2	5
CCN(CCCNC(=O)C1CCCN(S(=O)(=O)c2cnc[nH]2)C1)c1ccccc1 (stereo unspecified)	i	11	2	1	-10	4	1	-19
CCOC(=O)c1c(C)oc2ccc(OC(=O)COc3c(F)c(F)c(F)c(F)c3F)cc12	nt	-20	2	0	-11	-12	-3	0
COc1ccccc1CC1(C)C(=O)Nc2ccc(OC(F)(F)F)cc21 (stereo unspecified)	nt	5	-2	-4	-6	nt	nt	nt
C/C(=N\NC(=O)c1ccc(Cn2cc([N+](=O)[O-])cn2)o1)c1cccc(NC(=O)c2cccnc2)c1	i	2	0	2	-5	-11	4	-16
CCN1CCN(C(=O)/C(=C/c2cccs2)NC(=O)c2ccc(C)c(C)c2)CC1	nt	-6	3	3	-15	-6	-6	-7
Cc1cc(-n2c(C)cc(C(=O)CSc3ncnc4ccccc34)c2C)no1	i	51*	2	-10	-2	12	13	8
COc1ccc(C2=CC(=O)C[C@H](c3ccc(OC)c(OC)c3)C2)cn1	nt	15	7	0	-21	nt	nt	-3
COc1ccc(NC(=O)N2CCCc3ccccc32)c(OC)c1	i	nt	-1	7	-13	-3	-4	-13
Cc1cc(OC(C)C(=O)NCc2ccccn2)c2c(C)c(Cc3ccccc3)c(=O)oc2c1 (stereo unspecified)	i	-1	2	3	-27	-12	-9	-2
COc1cc2c(cc1OC)C(COc1ccc(C(C)C)cc1)NCC2 (stereo unspecified)	i	-7	-4	-1	21	4	-1	24
CCCCCCC(c1c(C)n(C)n(-c2ccccc2)c1=O)c1c(C)n(C)n(-c2ccccc2)c1=O	i	-137	-2	-2	14	1	-3	nt
O=C(Oc1cccc(O)c1)C1CCCCC1	i	nt	nt	nt	nt	6	-15	-2
CCOC(=O)c1ccc(-n2c(CN3CCN(CCO)CC3)nc3ccc([N+](=O)[O-])cc3c2=O)cc1	i	2	4	6	-12	10	-5	3
COC(=O)CSc1nnc(CNC(=O)c2ccccc2OC)n1-c1ccc(OC)cc1	nt	nt	0	-1	nt	0	-8	-8
O=C(CCc1nnc(CCCCc2ccccc2)o1)NCCc1cccnc1	i	7	-8	-4	nt	12	2	-22
O=C(COC(=O)c1ccc(Br)cc1)NC1CCCC1	i	-3	-1	3	-19	-5	-5	nt
CC(=O)NCCc1nc2cc(NS(=O)(=O)c3ccc(Cl)cc3)ccc2n1C	i	-49	2	2	0	3	-7	5
Cc1ccc2[nH]c(=O)c(CN(CCCO)C(C)c3nnnn3Cc3ccco3)cc2c1 (stereo unspecified)	i	11	-5	-1	12	-5	2	-15
Cn1c(CC(=O)Nc2ccccc2)nnc1SCC(=O)NC1=NCCS1	nt	-10	1	3	-12	4	-9	-10
Cc1cc(C=O)c(C)n1-c1cccc(C(=O)O)c1	i	20	-2	4	nt	56	80*	-1	eIF4H FP inh retest=75*;PABP FP inh retest=43
O=S(=O)(/N=C(/Nc1ccccn1)c1ccccc1)c1ccc(Cl)cc1	i	-18	-4	-1	-5	0	8	nt
CCOC(=O)C1CCCN(C(=O)CC(c2ccccc2)c2ccccc2)C1 (stereo unspecified)	i	nt	1	-2	9	23	-2	-10
O=C(N/N=C/c1ccc(F)cc1)c1ccncc1	i	-1	-5	-2	1	2	-9	-12
Cc1nnc(SCC(=O)NCc2ccco2)[nH]c1=O	i	-34	-1	-2	-14	34*	57*	-4	eIF4H FP inh retest=72*;PABP FP inh retest=80*
COc1ccc(OCC(=O)NC2CCCc3ccccc32)cc1 (stereo unspecified)	i	?	4	6	nt	9	7	13
O=C(Cn1nnc(-c2ccccc2F)n1)Nc1ccc2c(c1)OCO2	i	nt	1	1	nt	-10	-10	-6
CCOc1ccc(NC(=O)C(C)N2C(=O)c3ccccc3C2=O)cc1 (stereo unspecified)	i	-32	3	4	-10	5	1	-6
CCCc1nnc(NS(=O)(=O)c2ccc(C)cc2)o1	nt	17	-1	2	-13	nt	nt	nt

(next part)
SMILES	Rce1 inhib	Env fusion inh	MT1-MMP act inh	MT1-MMP act inh RFP	Yeast UUG start	PABP FP inh	eIF4H FP inh	CSC inhib	others
CCC1=C([N+](=O)[O-])C(c2ccc3c(c2)OCO3)NC(=O)N1 (stereo unspecified)	i	7	0	3	-15	5	2	-11
COc1ccc(S(=O)(=O)N(C)C[C@H]2Oc3ccc(NC(=O)Cn4cnnn4)cc3C(=O)N([C@H](C)CO)C[C@@H]2C)cc1	nt	-3[16.7 µM]	1	1	34&-1	nt	nt	nt
CCOc1ccc(CNC(=O)Cn2nc(C)n3nc(-c4ccccc4)cc3c2=O)cc1	i	3	-3	0	2	-5	-14	-10
CC1=CC(c2ccc(Cl)cc2)n2nc(NC(=O)c3ccccc3)nc2N1 (stereo unspecified)	i	nt	1	6	-16	9	3	0
Cn1c(=O)c2c(ncn2CC(=O)OCC(=O)c2ccc(OC(F)F)cc2OC(F)F)n(C)c1=O	nt	18	-3	4	-9	nt	nt	nt
C=CC[C@H](CC(=O)NCCO)C(=O)N[C@H](COC(=O)[C@@H](CC=C)Cc1ccc(F)cc1)Cc1ccccc1	nt	59*	-1	-2	-30	nt	nt	nt
Cc1c(C(=O)N2CC(C(=O)N3CCCCC3)Oc3ccccc32)oc2ccccc12 (stereo unspecified)	nt	7	-1	3	-28	nt	nt	nt
O=C1C2CCCN2C(=O)N1CCN1CCN(c2cccc(C(F)(F)F)c2)CC1 (stereo unspecified)	nt	8	1	-5	-9	nt	nt	nt
CCCc1nn(C)c2c(=O)[nH]c(-c3cc(S(=O)(=O)N4CCN(C)CC4)ccc3OCC)nc12	i	-9	2	4	-1	-7	3	-3
c1ccc(COc2ccc(OCCn3cncn3)cc2)cc1	i	nt	-3	-4	-17	-12	-12	3
Cc1c(O)ccc(C(=O)CN2CCN(Cc3ccccc3)CC2)c1O	i	-3	2	1	-10	9	7	-3
O=C(c1cc(Cl)nc2ccccc12)N1CCN(S(=O)(=O)c2cccc(F)c2)CC1	i	11	-5	0	nt	nt	nt	-7
CCOC(=O)C1CCCN(S(=O)(=O)NC[C@H]2O[C@@H](n3cnc4c(N)ncnc43)[C@H](O)[C@@H]2O)C1 (stereo partly specified)	nt	0	1	5	-32	nt	nt	-19
CC(n1cnnn1)C12CC3CC(CC(C3)C1)C2 (stereo unspecified)	i	nt	14	8	0	8	-5	51
CCN1CCN(Cc2nnc(-c3ccc(C)cc3)o2)CC1	i	0	-4	-2	-19	6	1	3

Among those listed so far, two have bromine:
SMILES	Rce1 inhib	Env fusion inh	MT1-MMP act inh	MT1-MMP act inh RFP	Yeast UUG start	PABP FP inh	eIF4H FP inh	CSC inhib	others
COc1ccc(-c2cc3ccccc3oc2=O)cc1NC(=O)c1ccc(Br)o1	i	nt	3	5	-9	-5	5	-3
O=C(COC(=O)c1ccc(Br)cc1)NC1CCCC1	i	-3	-1	3	-19	-5	-5	nt
